Screening data (PubChem BioAssay)
Cruzain inh Det: qHTS Assay for Promiscuous and Specific Inhibitors of Cruzain (with detergent); purified cruzain, Z-FR-AMC fluorescence, 0.01% Triton; 0.43% of 200,000 active; Potency, µM, without a hit: max response, negative = inhibition, hits mostly inhibitors; Cruzipain (Trypanosoma cruzi), P25779; AID 1478, 2009; active means well fitted curve in the direction sought with a large enough effect; inconclusive means small, poorly fitted or top-dose-only effect, or another doubt; inactive means no such curve, though single readings can be large; an effect the other way counts as inactive or inconclusive;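 further: plate controls were neutral wells for no effect and buffer without enzyme for full effect; nearly all actives have a fitted effect of over 40% in size; top concentration of the series not given in the record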
Target sequence (P25779 123-467 limits assumed): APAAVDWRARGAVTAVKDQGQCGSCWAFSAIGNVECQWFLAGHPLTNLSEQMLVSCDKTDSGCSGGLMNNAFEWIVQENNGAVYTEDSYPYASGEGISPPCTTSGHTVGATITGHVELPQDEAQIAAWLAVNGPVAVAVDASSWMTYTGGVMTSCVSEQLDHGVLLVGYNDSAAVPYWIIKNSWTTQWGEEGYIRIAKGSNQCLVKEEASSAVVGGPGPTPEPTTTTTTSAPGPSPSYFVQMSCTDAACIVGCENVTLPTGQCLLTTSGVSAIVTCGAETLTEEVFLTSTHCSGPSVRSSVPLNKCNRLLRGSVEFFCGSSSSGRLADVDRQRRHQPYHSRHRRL
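Read-out: AMC fluorescence (360 nm excitation, 450 nm emission), four reads over 2 min, first-to-third difference used. Conditions: cruzain 1.5 nM, Z-FR-AMC 2 uM, pH 5.5 acetate, 5 mM DTT, 0.01% Triton X-100.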
SARS PLP yeast: qHTS of Yeast-based Assay for SARS-CoV PLP; 0.19% of 330,000 active; S. cerevisiae expressing SARS-CoV PLpro, growth rescue; control for the full effect not named in the record; Potency, µM (doses to about 32.9 µM), for the others: at the top dose activity, positive = growth rescue; further: 0% is about no effect; nearly all actives have a fitted effect of over 55% in size; growth read by luminescence after 48 h
Cruzain inh noDet: qHTS Assay for Promiscuous and Specific Inhibitors of Cruzain (without detergent) | AID 1476, 2009 | 2.3% of 200,000 active | Potency, µM, inactives show max response, negative = inhibition, usual class: inhibitors | purified cruzain, Z-FR-AMC fluorescence, no detergent; active means well fitted curve in the direction sought with a large enough effect; inconclusive means small, poorly fitted or top-dose-only effect, or another doubt; inactive means no such curve, though single readings can be large; an effect the other way counts as inactive or inconclusive;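 further: plate controls were enzyme without inhibitor for no effect and buffer without enzyme for full effect; nearly all actives have a fitted effect of over 40% in size; top concentration of the series not given in the record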
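Detergent-free condition (0.00005% Triton X-100) in acetate buffer pH 5.5 with DTT. 1.5 nM enzyme and compound were pre-mixed 15 min, then 2 uM Z-FR-AMC substrate added; reaction progress from fluorescence change between first and third reads (60 s).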
LASV entry inh: qHTS for Inhibitors of binding or entry into cells for Lassa Virus | AID 540256, 2011 | Potency, µM (series often up to 37.9 µM), inactives show at the top dose activity change, negative = inhibition, most hits filed as inhibitors | 1.2% of 300,000 active | Lassa virus pseudotype entry inhibition, cell reporter; control for the full effect not named in the record; active means well fitted inhibition curve with a large enough effect; inconclusive means small, poorly fitted or top-dose-only effect, or effect the other way; inactive means flat fitted curve, though single readings scatter; tested in HEK293 cells; further: on the % scale 0 is the no-effect control and ±100 the full control effect; nearly all actives have a fitted effect of over 50% in size; luciferase read-out
Marburg entry inh: qHTS for inhibitors of binding or entry into cells for Marburg Virus | Marburg virus pseudotyped entry inhibition, cell reporter; control for the full effect not named in the record; about a third of the inactives were read at about 46 µM | Potency, µM (series often up to 37.8 µM), for inactives: at the highest dose activity change, negative = inhibition, usual class: inhibitors | 1.8% of 300,000 active | AID 540276, 2011; active = well fitted inhibition curve with a large enough effect; inconclusive = small, poorly fitted or top-dose-only effect, or effect the other way; inactive = flat fitted curve, though single readings scatter; tested in HEK293 cells; about a fifth of its hits are not listed in these tables; further: on the % scale 0 is the no-effect control and ±100 the full control effect; luciferase read-out
StopGo reporter: High Throughput Screening for Foot and Mouth Disease Virus Antivirals; human cells with a luciferase reporter of 2A StopGo recoding; control for the full effect not named in the record; Potency, µM (doses to about 57.9 µM), without a hit: top-dose signal change, negative = less light; 1.2% of 410,000 active; active = well fitted falling curve with a large enough effect; inconclusive = small, poorly fitted or top-dose-only effect; inactive = no such curve, though single readings can be large or run the other way; tested in HEK293T cells; further: on the % scale 0 is the no-effect control and ±100 the full control effect; nearly all actives have a fitted effect of over 45% in size; luciferase light after 4 h
RE007 growth inh: qHTS Assay for Inhibitors of the HIV-1 protein Vpr. S. pombe RE007 Vpr strain, BacTiter-Glo ATP luminescence, 24 h; control for the full effect not named in the record. Potency, µM (doses to about 92.2 µM), inactives show top-dose activity change, negative = less growth. 0.21% of 360,000 active. AID 651644, 2012; active = well fitted falling curve with a large enough effect; inconclusive = small, poorly fitted or top-dose-only effect; inactive = no such curve, though single readings can be large or run the other way;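 further: on the % scale 0 is the no-effect control and ±100 the full control effect; nearly all actives have a fitted effect of over 50% in size; the assay follows cell death caused by Vpr and the record does not say whether a fall means rescue or toxicity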
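Fission yeast RE007 carrying one integrated HIV-1 vpr copy, seeded at OD 0.01 in PMG+AL medium with 23 nL pinned compound. Grown 24 h at 30 degrees; viability read by BacTiter-Glo luminescence after 5 min.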
NS1 function inh: qHTS Assay for Inhibitors of Influenza NS1 Protein Function | S. cerevisiae slowed by influenza A NS1, growth recovery by OD600 | AID 2326, 2010 | 0.4% of 270,000 active | Potency, µM (series often up to 46.1 µM), for the others: at the highest dose activity, positive = more growth; further: actives are rising curves; nearly all actives have a fitted effect of over 50% in size
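Growth recovery, yeast-based: influenza A NS1 expressed in S. cerevisiae causes slow growth, and suppressors are detected by OD600. The parent strain without NS1 is used as positive control.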
Active calls of the source: *; ? = inconclusive; · = not tested or not shown; [ ] = dose if it differs, or a comment. Unless noted, the call rests on the fitted dose curve; in most records, active means well fitted rising curve with a large enough effect; inconclusive means small, poorly fitted or top-dose-only effect; inactive means no such curve, though single readings can be large or run the other way. Potency means the concentration at half of the fitted maximal effect.

cpd	Structure	Cruzain inh Det	SARS PLP yeast	Cruzain inh noDet	LASV entry inh	Marburg entry inh	StopGo reporter	RE007 growth inh	NS1 function inh
1	O=C(COC(=O)/C=C/c1ccc([N+](=O)[O-])cc1)NCc1ccco1	·	-1%	·	·	·	-8%	-2%	-1%
2	CCC1(c2ccc(F)cc2)NC(=O)N(CC(=O)Nc2ccc(S(N)(=O)=O)cc2)C1=O (stereo not given)	·	1%	·	·	·	-1%	-8%	6%
3	CSc1nsc(SCC(=O)Nc2ccccc2C(=O)O)n1	·	-2%	·	1%	18µM*	39%[activator]	-15%	7%
4	COc1ccccc1OCCNC(=O)c1cc(C2CC2)nc2c1cnn2C(C)C	·	-16%	·	-10%	12%	?	-19%	·
5	COc1ccc(C(=O)Nc2ccc(Nc3ccccc3)cc2)cc1OC	·	3%	·	·	·	-7%	-7%	10%
6	C=CCNC(=O)c1cc(-c2ccncc2)nc2c(C)cc(C)cc12	·	5%	·	·	·	-9%	-10%	3%
7	Cn1c(=O)c2c(nc(N3CCCCC3)n2CCSc2nc3ccccc3s2)n(C)c1=O	2.3%	-13%	?	?	-1%	-23%	4%	-46%
8	Cc1cc(NC(=O)COC(=O)[C@@H](NS(=O)(=O)c2ccccc2)C(C)C)no1	·	1%	·	·	·	0%	4%	-1%
9	COc1ccc(C2CCCN2C(=S)Nc2ccc(C)cc2Cl)cc1OC (stereo not given)	·	3%	·	-25%[46.1 µM]	?	23%	15%	·
10	COc1ccc(OC)c(NC(=O)COC(=O)CCCN=C2NS(=O)(=O)c3ccccc32)c1	·	-2%	·	27%[46.1 µM]	?	13%	-16%	·
11	CC(C)c1ccc(NC(=O)[C@H](NC(=O)[C@@H]2Cc3ccccc3CN2)c2ccccc2)cc1	·	0%	·	0%[46.1 µM]	4µM*	-8%	1%	16%
12	Cc1nn(CCCC(=O)Nc2cc(Oc3ccc(F)cc3)cc([N+](=O)[O-])c2)c(C)c1[N+](=O)[O-]	-8.3%	-24%	-11%	?	2%	-25%	-3%	14%
13	CCNC(=O)CSc1nnc(-c2ccccc2)n1-c1ccc(OCC)cc1	2.5%	6%	7%	-27%[14.3 µM]	-2%	-18%	-9%	5%
14	COC(=O)CSc1nc2ccccn2c(=O)c1C=O	·	1%	·	8%[46.1 µM]	12%[46.1 µM]	18%	10%	·
15	COc1ccccc1CNC(=O)C(CCSC)NC(=O)c1cccc(S(=O)(=O)N2CCOCC2)c1 (stereo not given)	·	8%	·	-18%	-18%	-10%	12%	·
16	O=C(Nc1ccc2c(c1)OCO2)c1cnc2n(c1=O)CCS2	0.6%	-12%	12%	-2%	19%	39%[activator]	-9%	2%

Fetched by structure from the list above (two):
cpd	Structure	Cruzain inh Det	SARS PLP yeast	Cruzain inh noDet	LASV entry inh	Marburg entry inh	StopGo reporter	RE007 growth inh	NS1 function inh
16	O=C(Nc1ccc2c(c1)OCO2)c1cnc2n(c1=O)CCS2	0.6%	-12%	12%	-2%	19%	39%[activator]	-9%	2%
10	COc1ccc(OC)c(NC(=O)COC(=O)CCCN=C2NS(=O)(=O)c3ccccc32)c1	·	-2%	·	27%[46.1 µM]	?	13%	-16%	·

Next results:
cpd	Structure	Cruzain inh Det	SARS PLP yeast	Cruzain inh noDet	LASV entry inh	Marburg entry inh	StopGo reporter	RE007 growth inh	NS1 function inh
17	Cc1cccc(C)c1NC(=S)N1CCCCCC1	·	17%	·	?	-2%[46.1 µM]	39%[activator]	0%	7%
18	COc1ccc(-c2[nH]ncc2/C=N\NC(=O)c2ccc(Br)o2)cc1OC	·	-2%	·	-2%	15%	-25%	4%	-17%
19	C=CCn1c(SCC(=O)Nc2nc3ccccc3s2)nnc1-c1ccccc1O	-6.4%	-2%	?	5%	-19%	?	12%	-37%
20	Nc1ccc2oc(C3CCCCC3)nc2c1	·	1%	·	1%[46.1 µM]	?	25%	-13%	1%
21	CN1CCC(=O)N([C@H](COc2ccccc2)Cc2ccccc2)CC1	·	-5%	·	·	·	-4%	4%	2%
22	O=c1[nH]c(SCc2n[nH]c(=S)n2-c2ccccc2)nc2sc3c(c12)CCC3	-4.6%	6%	10%	-34%[14.3 µM]	-4%	43%[activator]	12%	21%
23	CCn1c(N)c(C(=O)NCc2ccc3c(c2)OCO3)sc1=S	-8.7%	-2%	-6%	-5%	31%	-6%	-6%	-79%
24	O=S1(=O)NC[C@]23C[C@H](c4ccc(F)cc4)[C@@H](C[C@@H]21)O3	·	0%	·	·	·	18%	-2%	-2%
25	Cc1cc(C)c(NC(=S)NC(NC(=O)c2ccccc2)C(Cl)(Cl)Cl)c(C)c1 (stereo not given)	-3.9%	3%	-1%	?	?	-27%	13%	1%
26	OCCC1CN(Cc2cccn2-c2ccccn2)CCN1C1CCCC1 (stereo not given)	·	0%	·	1%[46.1 µM]	-9%[46.1 µM]	-9%	-6%	2%
27	O=S(=O)(/N=C(/Nc1ccccc1F)c1ccccc1)c1ccccc1	-1.4%	0%	-17%	6%	2%	7%	19%	-8%
28	CC(C)CNc1ncnc2[nH]ncc12	·	·	·	-22%[46.1 µM]	29%[46.1 µM]	-7%	2%	·
29	O=C(COC(=O)c1cc([N+](=O)[O-])ccc1N1CCOCC1)NCc1ccc(Cl)cc1Cl	·	19%	·	·	·	-30%	27%	21%
30	O=C(NCC1CCCO1)c1cccc(N2CCCC2=O)c1 (stereo not given)	5.3%	6%	-22%	0%	-2%	22%	-17%	1%
31	Cc1cc(C)n(-c2nc3ccccc3nc2Nc2ccc(C(C)C)cc2)n1	-2.0%	·	-3%	2%[46.1 µM]	19%[46.1 µM]	-11%	·	·
32	C=CCn1c(=O)c(C(C)=O)cn(N(C)c2ncc(C(F)(F)F)cc2Cl)c1=O	·	4%	·	7%	4%[14.2 µM]	-7%	-5%	·
33	O=C(c1cccs1)N1CCN(C2CCN(Cc3ccccc3)CC2)CC1	-6.3%	2%	19%	6%	11%	-23%	-8%	-3%
34	COc1ccccc1-n1cnc2sc(-c3ccccc3)cc2c1=O	-6.8%	0%	-13%	22%	?	-17%	16%	4%
35	CC(=O)C1=C(O)C(=O)N(CCC(=O)O)C1c1cccc(F)c1 (stereo not given)	-0.1%	1%	2%	3%	10%	·	4%	0%
36	O=C(Cc1ccc(F)cc1)N1CCOCC1	·	6%	·	12%	13%	0%	2%	1%
37	O=C(CCC(=O)NC12CC3CC(CC(C3)C1)C2)NC1CCCCC1	·	14%	·	·	·	0%	9%	4%
38	COc1ccccc1CN(C)C(=O)C(c1ccccc1)c1ccccc1	·	-5%	·	?	?	-19%	6%	-4%
39	O=C(NCCCn1ccnc1)C(=O)Nc1ccccc1	·	0%	·	·	-3%[46.1 µM]	52%[activator]	?	5%
40	CCOC(=O)c1cccc(NC(=O)c2cc(S(=O)(=O)N3CCCC(C)C3)cn2C)c1 (stereo not given)	-7.0%	·	8%	-16%[46.1 µM]	·	?	·	·
41	CC(=O)Nc1ccc(S(=O)(=O)NC(C(=O)O)C(C)C)cc1 (stereo not given)	·	·	·	0%	5%	22%	10%	·
42	c1ccc(Cn2nc(-c3ccccc3)nc2-c2ccccc2)cc1	-7.3%	-14%	-13%	?	?	23%	?	-14%
43	CC(C)N1C/C(=C/c2cccnc2)C(=O)/C(=C/c2cccnc2)C1	-4.1%	-4%	-2%	13µM*	4.5µM*	8.9µM*	-21%	-13%
44	Cc1ccc(NC(=O)c2cc3ccccc3oc2=N)cc1	·	-1%	·	·	·	-44%	20%	-1%
45	O=C(CNC(=O)c1cccc(Cl)c1)N/N=C/C=C/c1ccccc1	3.7%	2%	-7%	14%	21%	-18%	1%	0%
46	COc1cc(CN2CCC(CO)(Cc3cccc(C(F)(F)F)c3)CC2)ccc1F	·	3%	·	·	·	-22%	-18%	3%
47	O=C(CCC(=O)Nc1ccc(F)cc1)N/N=C/c1cccs1	·	?	·	·	·	-11%	-7%	5%

Sorted by number of heavy atoms (falling): part of the list above.
cpd	Structure	Cruzain inh Det	SARS PLP yeast	Cruzain inh noDet	LASV entry inh	Marburg entry inh	StopGo reporter	RE007 growth inh	NS1 function inh
7	Cn1c(=O)c2c(nc(N3CCCCC3)n2CCSc2nc3ccccc3s2)n(C)c1=O	2.3%	-13%	?	?	-1%	-23%	4%	-46%
4	COc1ccccc1OCCNC(=O)c1cc(C2CC2)nc2c1cnn2C(C)C	·	-16%	·	-10%	12%	?	-19%	·
32	C=CCn1c(=O)c(C(C)=O)cn(N(C)c2ncc(C(F)(F)F)cc2Cl)c1=O	·	4%	·	7%	4%[14.2 µM]	-7%	-5%	·
21	CN1CCC(=O)N([C@H](COc2ccccc2)Cc2ccccc2)CC1	·	-5%	·	·	·	-4%	4%	2%
45	O=C(CNC(=O)c1cccc(Cl)c1)N/N=C/C=C/c1ccccc1	3.7%	2%	-7%	14%	21%	-18%	1%	0%
47	O=C(CCC(=O)Nc1ccc(F)cc1)N/N=C/c1cccs1	·	?	·	·	·	-11%	-7%	5%
41	CC(=O)Nc1ccc(S(=O)(=O)NC(C(=O)O)C(C)C)cc1 (stereo not given)	·	·	·	0%	5%	22%	10%	·
24	O=S1(=O)NC[C@]23C[C@H](c4ccc(F)cc4)[C@@H](C[C@@H]21)O3	·	0%	·	·	·	18%	-2%	-2%
17	Cc1cccc(C)c1NC(=S)N1CCCCCC1	·	17%	·	?	-2%[46.1 µM]	39%[activator]	0%	7%
